Bioassay records as filed in PubChem BioAssay.
miR-21 FLuc = miR-21 reporter, rising signal; HeLa miR-21 FLuc reporter, luciferase, 48 h; Potency, µM (doses to about 38.3 µM), inactives show top-dose reporter change, positive = more light; 340,000 tested, under 10 active; AID 2288; active = well fitted rising curve with a large enough effect; inconclusive = small, poorly fitted or top-dose-only effect; inactive = no such curve, though single readings can be large or run the other way;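 further: % of control where 0% means no effect; miR-21 action dims this reporter so a rising signal means less miR-21 action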
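Using DMEM plus 10% FBS, HeLa miR-21-FLuc cells are incubated with test compounds (final up to about 40uM) for 48 hours; firefly luciferase signal is then imaged following reagent-mediated lysis.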
Rango-impB inh = inhibitors of Rango-importin beta complex formation. Q14974. Rango CFP/YFP FRET sensor + importin beta, 45 min. Potency, µM (series often up to 92.2 µM), without a hit: top-dose inhibition of complex formation. 340,000 tested, 0.031% active. AID 540263; active = rising FRET ratio curve, often small or poorly fitted; inconclusive = mostly compound fluorescence or quenching in the first reads; inactive = flat curves in all reads;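 further: potency means the concentration at half of the fitted maximal effect; 0% = DMSO wells and 100% = buffer wells lacking importin beta; nearly all actives have a fitted effect of over 15% in size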
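Inhibition scored from the CFP 486 nm/YFP 530 nm FRET ratio 45 min after adding 0.125 microM importin beta to 50 nM Rango biosensor preincubated 5 min with compound (room temperature, PBS with DTT, Tween-20, BSA). No-importin wells as positive control.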
GLA inh pH 4.5 = inhibitors of human alpha-galactosidase A at pH 4.5; P06280; purified enzyme, 4-MU-alpha-Gal fluorescence, pH 4.5; activity change, negative = inhibition, % at 105 µM; 230,000 tested, under 10 active; inconclusive = small, poorly fitted or top-dose-only inhibition, or a rising curve; inactive = flat fitted curve, though single readings scatter; no compound was filed as active;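 further: 0% = full activity with enzyme and -100% = basal without enzyme; dose as in the result columns while the protocol names 77 µM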
Target sequence (P06280 whole entry, looked up): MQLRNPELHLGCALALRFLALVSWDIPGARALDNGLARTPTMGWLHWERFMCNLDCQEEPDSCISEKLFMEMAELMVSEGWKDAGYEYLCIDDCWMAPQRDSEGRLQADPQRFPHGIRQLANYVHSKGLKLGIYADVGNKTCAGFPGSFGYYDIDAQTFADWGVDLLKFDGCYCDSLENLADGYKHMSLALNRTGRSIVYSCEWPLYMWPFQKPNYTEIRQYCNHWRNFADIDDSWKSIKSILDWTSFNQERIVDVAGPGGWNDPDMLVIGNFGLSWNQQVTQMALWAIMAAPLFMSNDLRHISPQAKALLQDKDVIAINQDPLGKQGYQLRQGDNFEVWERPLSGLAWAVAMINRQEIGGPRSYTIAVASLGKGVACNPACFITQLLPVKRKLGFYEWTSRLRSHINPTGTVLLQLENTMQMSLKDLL
Rango release inh = inhibitors of RanGTP-induced Rango-importin beta complex dissociation; O95149+P62826; Biochemical FRET Rango-importin beta, RanGTP-induced dissociation; Potency, µM (series often up to 46.1 µM), for the others: at the top dose activity change, negative = inhibition; 340,000 tested, 0.071% active; active means falling FRET ratio curve, often poorly fitted, with flat reads before Ran was added; inconclusive means other falling curves, or compound fluorescence or quenching; inactive means flat or rising ratio curve;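 further: potency means the concentration at half of the fitted maximal effect; % of control where 0% means no effect; nearly all actives have a fitted effect of over 45% in size; -100% = wells without RanGTP and RCC1; the record marks most hits as doubtful in a second field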
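Recombinant Rango FRET biosensor (EYFP–snurportin 1 IBB–cerulean CFP10) at 0.1 uM premixed with 0.25 uM importin beta in PBS, 1 mM DTT, 0.02% Tween-20, 0.1% BSA. Compound added 5 min; RanGTP-RCC1 (0.6 uM Ran, 2 mM GTP, 0.2 uM RCC1) then triggers release, read at 45 min.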
Numbers without * were called inactive; u = inconclusive; x = no result given; & = joins results of further samples. Some of the compounds tested; count on the stated rates, not on these rows.

mol | miR-21 FLuc | Rango-impB inh | GLA inh pH 4.5 | Rango release inh
CC(C)Nc1nc(Cl)nc(N(C#N)CN2C(=O)c3ccccc3S2(=O)=O)n1 | 0% | -2.2% | -10 | -10%
COc1ccc(N(CC(=O)N2CCCC(C)C2)S(=O)(=O)c2c(C)nn(C)c2C)cc1 (centres undefined) | -6% | 0.0% | 3 | 7%
O=C(O)CC(NS(=O)(=O)c1cccc2nsnc12)c1ccc(F)cc1 (centres undefined) | -3% | -2.4% | -1 | 2%
CN(C)CCCNC1CS(=O)(=O)CC1O (centres undefined) | -1% | 2.0% | -3 | -9%
Cc1ccc(S(=O)(=O)NNC(=O)CCC(=O)Nc2ccccc2Cl)cc1 | -1% | -3.3% | x | 43%
COc1ccc(CCNC(=O)CN2CCN(c3cccc(C(F)(F)F)c3)CC2)cc1 | 4% | -5.4% | -19 | u
O=C(NCc1cccc(Cl)c1)c1ccc(CS(=O)Cc2ccccc2Cl)o1 (centres undefined) | 7%&8% | 4.2% | x | 10%
CSc1c(-c2ccccc2)nc2ccccc2c1C(=O)O | -3% | 2.4% | 7 | -4%
Cc1ccc(NC2=NCC(=O)N2Cc2cccs2)cc1C | -29% | u | -4 | x
COc1ccc([N+](=O)[O-])cc1NC(=O)N(C)Cc1ccco1 | -8% | 1.9% | 3 | -5%
CCN1C/C(=C/c2cccs2)c2nc3ccccc3c(C(=O)O)c2C1 | -1% | u | -7 | u
CCCCCOc1ccc(Br)cc1CSC(=N)N | u | -0.5% | -20 | 10%
CC1=CC(c2ccccc2)n2nc(N3C(=O)CCC3=O)nc2N1 (centres undefined) | 10% | -0.7% | 4 | u
O=C(CCCN1C(=O)[C@H]2CC=CC[C@H]2C1=O)NCc1nc(-c2ccc(Cl)cc2)no1 | -1% | 4.6% | x | -3%
COc1ccccc1NC(=O)c1oc2ccc(C)cc2c1C | -50% | 0.6% | -9 | -17%
Cc1ccc(S(=O)(=O)N2CCCCC2)cc1C(=O)NCc1ccccn1 | 0% | 0.7% | x | 15%
O=C(C(=O)N1CCCC1)c1c(-c2ccccc2)[nH]c2ccccc12 | -6% | -1.7% | x | -7%
COCCN1Cc2cc3cc(C)ccc3nc2SC1=Nc1ccc(OC)cc1 | -12% | -1.0% | -11 | 6%
Cc1[nH]cnc1CSCCN | 2% | 1.8% | 8 | -18%
CC1(C)Cc2nc3sc4c(=O)[nH]cnc4c3cc2CS1 | -29% | 0.5% | 5 | 15%

Filtered by structure: the compounds so far with a carbonyl joined to an NH by a bond outside any ring
mol | miR-21 FLuc | Rango-impB inh | GLA inh pH 4.5 | Rango release inh
Cc1ccc(S(=O)(=O)NNC(=O)CCC(=O)Nc2ccccc2Cl)cc1 | -1% | -3.3% | x | 43%
COc1ccc(CCNC(=O)CN2CCN(c3cccc(C(F)(F)F)c3)CC2)cc1 | 4% | -5.4% | -19 | u
O=C(NCc1cccc(Cl)c1)c1ccc(CS(=O)Cc2ccccc2Cl)o1 (centres undefined) | 7%&8% | 4.2% | x | 10%
COc1ccc([N+](=O)[O-])cc1NC(=O)N(C)Cc1ccco1 | -8% | 1.9% | 3 | -5%
O=C(CCCN1C(=O)[C@H]2CC=CC[C@H]2C1=O)NCc1nc(-c2ccc(Cl)cc2)no1 | -1% | 4.6% | x | -3%
COc1ccccc1NC(=O)c1oc2ccc(C)cc2c1C | -50% | 0.6% | -9 | -17%
Cc1ccc(S(=O)(=O)N2CCCCC2)cc1C(=O)NCc1ccccn1 | 0% | 0.7% | x | 15%

(listing goes on)
mol | miR-21 FLuc | Rango-impB inh | GLA inh pH 4.5 | Rango release inh
Cc1cc(S(=O)(=O)NC2CCCCC2)ccc1OCC(=O)NCc1cccnc1 | 3% | 0.2% | -1 | 8%
Cc1cc(C(=O)CSc2nn3c(=O)c(C(C)(C)C)nnc3s2)c(C)n1C1CC1 | -6% | -1.1% | 2 | 11%
COc1cccc(C2(c3cccc(OC)c3)CC2C(=O)Nc2ccccc2Cl)c1 (centres undefined) | 3% | 2.9% | -13 | 3%
CN1CCN(c2ccc(NC(=O)C(C)(c3ccccc3)c3ccccc3)cc2)CC1 | -2% | -0.3% | x | -8%
CCCCCC(=O)N(CN1C(=O)CCC1=O)c1ccccc1 | -2% | 3.8% | 6 | 0%
O=C1C2C(C(=O)N1CC1CCCO1)C1C=CC2C12CC2 (centres undefined) | -3% | -1.0% | 5 | 1%
O=C(NNC(=O)C1CCN(S(=O)(=O)c2c(Cl)cccc2Cl)CC1)c1ccccc1O | x | -1.3% | x | -8%
O=c1cnnc(SCc2ccc([N+](=O)[O-])cc2)[nH]1 | -2% | 1.1% | 1 | u
COC(=O)c1c(NC(=O)c2ccccc2N(C)S(=O)(=O)c2ccccc2)sc2c1CCCC2 | -5% | 4.7% | 18 | 4%
c1cncc(CSc2ccc(-c3ccc4c(c3)OCO4)nn2)c1 | 5% | 12% | 0 | 9%
CCc1cccc(NC(=O)C2CCCN2C(=O)Nc2ccc(C)cc2)c1 (centres undefined) | -5% | 2.8% | x | -2%
CCOC(=O)Cc1c(C)nc2c(-c3ccccc3)c(C)nn2c1C | -18% | -1.8% | u | -5%
COc1ccc(S(=O)(=O)NCCS(=O)(=O)N2CCN(c3ccccc3)CC2)cc1 | x | 0.0% | x | 16%
Cc1ccc(S(=O)(=O)N2CCN3CCCC3C2)cc1 (centres undefined) | -3% | 2.4% | x | -8%
O=C(CSc1nnc(-c2ccc(C(F)(F)F)cn2)o1)Nc1ccccc1Cl | -47% | -0.5% | -3 | 10%
Cc1nc2c(c(=O)c3ccccc3n2C)c(=O)n1-c1ccc(F)cc1 | 1% | -2.9% | 13 | 17%
Cc1ccccc1OCC(=O)NCC(=O)OCC(=O)c1ccc2ccccc2c1 | -4% | -2.7% | 4 | 3%
COc1ccc(NC(=O)C(C)Sc2ccccc2)cc1 (centres undefined) | -44% | -0.9% | -6 | -5%
Cc1cccc(OCC(=O)Nc2nnc(S(=O)(=O)N3CCCCC3)s2)c1 | -3% | 4.6% | x | 7%
COc1cc(C(F)(F)F)ccc1C(=O)NCCc1ccco1 | -70% | 6.0% | x | -5%

(continued)
mol | miR-21 FLuc | Rango-impB inh | GLA inh pH 4.5 | Rango release inh
CCC(NC(=O)c1ccccc1NC(=O)c1ccc(C)cc1)C(=O)O (centres undefined) | -18% | 0.1% | 9 | -11%
Cc1cc(OCC(=O)c2cccc(C(F)(F)F)c2)n2cnnc2n1 | 1% | 1.9% | -3 | 11%
COc1ccc(C(=O)Nc2cc3c(cc2Cl)OCCCO3)cc1 | -56% | -2.8% | 5 | -10%
COC(=O)CCCC(=O)N1CCC(CO)(CCc2ccccc2)CC1 | 1% | 0.9% | x | -5%
CCOc1nc(NCCN2CCOCC2)nc(NC(C)C)n1 | -5% | -2.8% | -8 | 10%
Cn1c(CNC(=O)C(C)(C)C)nc2ccccc21 | -4% | -2.5% | -5 | 1%
CN(C)c1ccc(CNC(=O)CN2C(=O)COc3ccc(S(=O)(=O)N4CCCC4)cc32)cc1 | 0% | -2.1% | x | 25%
O=C(CN1CCOCC1)Nc1c2c(nc3ccccc13)N(Cc1ccccc1)CC2 | 0% | -1.2% | 13 | -1%
CC(Cc1ccccc1)N(C)C(=O)CN1C(=O)c2ccccc2C1=O (centres undefined) | x | -0.1% | x | 24%
Nc1cc2c(cc1[N+](=O)[O-])OCCO2 | -18% | 4.8% | -2 | -20%
CCOc1ccccc1N(CC(=O)O)S(=O)(=O)c1ccccc1 | 0% | 4.9% | -1 | 20%
COc1ccc([C@H]2CC(=O)C=C(c3ccc4ccn(C)c4c3)C2)cc1 | x | -5.2% | x | 11%
Cc1ccc(Cn2cc(/C=N/NC(=O)Cc3nnc(NC(=O)c4ccc(C)cc4)s3)c3ccccc32)cc1 | -10% | 1.3% | 5 | 4%
CCN(CC(=O)NCc1cccs1)C(=O)/C=C/c1cccc(OC)c1OC | x | 4.5% | x | -5%
CCOC(=O)N1CCC(NC(=O)C2=C(C)C(=O)OC23CCC(C)CC3)CC1 (centres undefined) | -5% | -0.3% | 4 | 4%
CN(C)c1ccc(/C=N\NC(=O)c2cccc3cc[nH]c23)cc1 | 1% | u | -3 | u
O=C(CSc1nc(-c2ccncc2)nn1CC(=O)N1CCCCC1)NC1CCCC1 | -4% | -4.2% | -3 | -3%
O=C(COc1ncnc2ccccc12)Nc1cccc([N+](=O)[O-])c1 | 2% | -4.9% | 1 | 10%
C=CCSC1=N/C(=C\c2ccc(C(=O)O)cc2)C(=O)S1 | -1% | -1.0% | 13 | -30%
CCc1c(SCCC(=O)O)nc2ccccc2c1C | 3% | 0.8% | 1 | 0%

Remaining list, next part:
mol | miR-21 FLuc | Rango-impB inh | GLA inh pH 4.5 | Rango release inh
COCCn1c(N2CCN(c3ccc(OC)cc3)CC2)nc2c1c(=O)n(C)c(=O)n2C | 3% | 3.7% | -1 | 5%
CS(=O)(=O)Nc1ccc(C(=O)NCC2CCCO2)cc1 (centres undefined) | -3% | -2.5% | 6 | -5%
Cc1nn(C)cc1C1C2=C(CC(C)(C)CC2=O)N(c2ccccc2)C2=C1C(=O)CC(C)(C)C2 | 4% | u | 12 | 8.2µM*
Cc1cccc(NC(=O)Cn2cnc3c(cnn3-c3ccc(F)cc3)c2=O)c1C | 6% | 3.3% | 5 | 4%
Cc1ccc(C)n1-c1ccc(C(=O)Nc2ccccc2F)cc1 | -32% | -2.6% | 4 | -9%
CCC(=O)Nc1ccc(-c2cc3ccccc3oc2=O)cc1 | -1% | 3.3% | 7 | -2%
CCCCC(=O)OCC(=O)c1ccc(OCC)cc1 | -10% | 0.4% | 19 | -17%
Cc1cc(C)c(NC(=S)N(CCCN2CCN(C)CC2)Cc2cccs2)c(C)c1 | 1% | -0.9% | 5 | -12%
Cc1ccc(S(=O)(=O)NCC(=O)N(CC(=O)NCC2CCCO2)CC2CCCO2)cc1 (centres undefined) | 4% | -0.3% | 7 | 0%
CCCCOc1ccc(-c2cc(C(=O)NNC(=S)NCC)c3ccccc3n2)cc1 | u | -1.7% | -13 | 5%
COc1ccc(N2CCN(c3nc(NC(C)(C)C)nc(N4CCCCC4)n3)CC2)cc1 | -8% | 1.7% | -3 | 1%
CC(C)OC(=O)Cn1nc(C(F)(F)F)c2c1CCCC2 | 0% | -11% | 0 | -3%
C[C@@H](C(=O)NCCc1c[nH]c2ccccc12)[C@@H]1C[C@@]1(C)[C@@H](NC(=O)OCc1ccccc1)c1ccccc1 | 24% | 2.2% | 13&-10 | 9%
O=C(Nc1cccc(S(=O)(=O)N2CCCCC2)c1)Nc1ccc(Cl)cc1Cl | -9% | -4.0% | -8 | 2%
Cc1cccc(/C=N/N(CCO)C2=NS(=O)(=O)c3ccccc32)c1 | 0% | 0.2% | 0 | 0%
O=C(O)C1C2C=CC(C2)C1C(=O)NC1CCS(=O)(=O)C1 (centres undefined) | -2% | -2.3% | 0 | 3%
CSc1ncc(-c2ccc(Cl)cc2)[nH]1 | -61% | -0.2% | 3 | 10%
O=S(=O)(c1cc(Cl)ccc1Cl)N1CCCCC1 | -19% | -4.2% | -27 | 1%
C/C(=N\NC(=O)COc1ccccc1)c1cccs1 | -78% | -0.4% | 1 | 1%
Cc1ccc(S(=O)(=O)NC(=O)NC(C)Cc2ccccc2)cc1 (centres undefined) | -31% | 2.5% | 7 | 0%

Following part:
mol | miR-21 FLuc | Rango-impB inh | GLA inh pH 4.5 | Rango release inh
O=C(NCc1ccco1)c1cc(S(=O)(=O)N2CCOCC2)c(Cl)cc1Cl | -1% | -0.7% | 3 | -6%
Cc1ccccc1-n1c(C)cc(/C=N/NC(=O)c2ccncc2)c1C | -26% | 0.0% | -7 | -4%
C/C(N)=C(/C#N)C(=O)COC(=O)c1ccccc1Oc1ccccc1 | -3% | -0.3% | 2 | 0%
CCOc1cc(C#N)c(NC(=O)CSc2nnnn2-c2ccc(OC)cc2)cc1OCC | -16% | 3.0% | -2 | 13%
COC(=O)c1ccc(C2C(C(=O)c3ccco3)=C(O)C(=O)N2CC2CCCO2)cc1 (centres undefined) | -2% | -3.7% | x | -23%
O=C(CNC(=O)C12CC3CC(CC(C3)C1)C2)NCc1ccccc1 | x | 0.0% | x | 12%
N#Cc1cc(-c2ccccc2)nnc1Oc1ccccc1 | 1% | 0.2% | -3 | -8%
